UUG fidelity – yeast start codon fidelity modulation; S. cerevisiae UUG-firefly luciferase reporter, luminescence/redox ratio; activity score, % at 18.7 µM; 350,000 tested, 0.13% active; AID 602363;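 active means replicate mean at a twofold rise or more, about +100% in these data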;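 further: firefly luciferase made from a UUG start codon reports start codon fidelity; reporter light over untreated wells divided by growth signal over untreated wells; some hits fall short of that in this replicate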
MT1-MMP act inh – blocks activation of human MT1-MMP | GFP/RFP ratio change, % at 20 µM | HT1080 RFP-PRO-GFP cells, GFP/RFP ratio fluorescence, overnight; percent of plate control window, DMSO zero | 360,000 tested, 0.061% active | P50281 | AID 651647;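 active means GFP/RFP ratio change of at least 30% with cell ATP level not reduced by more than half and red fluorescence within 50% of control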; further: strong numbers were not always called active
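Test system: HT1080 cells expressing an RFP-PRO-GFP fluorescent reporter construct / Compound dosing: single-point 20 µM compound, 1% DMSO / Schedule: cells overnight before dosing, compound overnight, 37 °C, 5% CO2 / Evaluation: GFP/RFP fluorescence ratio / Control set: DMSO and RFP-L50D-GFP cell wells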
Env fusion inh – inhibitors of HIV Env-mediated cell fusion. HeLa-JRFL Env/CEM21 cell fusion, luciferase. inhibition, % at 12.3 µM. 360,000 tested, 1.1% active. AID 651610;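 active means mean replicate inhibition score of at least 50 and every replicate individually at or above 50; inconclusive means only one of the two criteria met; inactive means mean below 50 and not all replicates reaching 50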;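 further: 0% = plate neutral controls and 100% = maraviroc near 300 nM; one replicate is shown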
PABP polyA inh – blocks human PABP binding to poly(A) RNA; fluorescence polarization; inhibition, % at 35 µM; 290,000 tested, 1% active;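 active means 50% or more with normal probe brightness, or confirmed in later tests; inconclusive means above 50% with abnormal brightness, or retests that disagree; inactive means below 50% or failed in later tests; about a fifth of its hits are not listed in these tables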;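 further: calls also rest on retests at 20 µM and on dose response follow-up; controls were probe without protein and protein plus probe with vehicle; some compounds called inactive have numbers as strong as hits; many hits fall short of the cut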
Target sequence (P11940 whole entry, looked up): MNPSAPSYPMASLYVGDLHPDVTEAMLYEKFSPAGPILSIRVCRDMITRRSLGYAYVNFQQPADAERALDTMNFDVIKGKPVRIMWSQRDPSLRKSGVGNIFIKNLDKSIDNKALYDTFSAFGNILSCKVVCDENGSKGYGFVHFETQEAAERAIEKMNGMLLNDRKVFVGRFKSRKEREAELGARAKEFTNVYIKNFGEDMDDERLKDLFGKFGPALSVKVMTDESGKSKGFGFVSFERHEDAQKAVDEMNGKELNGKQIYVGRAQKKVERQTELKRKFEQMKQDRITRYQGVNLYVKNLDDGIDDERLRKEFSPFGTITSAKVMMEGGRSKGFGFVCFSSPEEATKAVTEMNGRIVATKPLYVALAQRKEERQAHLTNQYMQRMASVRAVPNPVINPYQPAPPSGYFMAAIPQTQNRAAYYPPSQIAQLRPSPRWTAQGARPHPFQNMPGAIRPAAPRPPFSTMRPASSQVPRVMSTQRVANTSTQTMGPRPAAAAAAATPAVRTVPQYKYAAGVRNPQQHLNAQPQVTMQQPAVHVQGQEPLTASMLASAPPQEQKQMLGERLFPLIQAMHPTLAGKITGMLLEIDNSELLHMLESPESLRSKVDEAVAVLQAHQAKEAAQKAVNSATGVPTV
Rce1 inhib – inhibitors of yeast Ras-converting enzyme | Q03530 | calls only | yeast membranes, quenched prenylated peptide cleavage fluorescence | 290,000 tested, 0.27% active | AID 2563;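 active means fall in fluorescence gain of 50% or more versus controls, with final raw signal at or below 3038400; inconclusive means same 50% fall but final raw signal above 3038400; inactive means fall in fluorescence gain under 50%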;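 further: plate controls were neutral control wells for no effect and wells lacking membranes for full effect; tested at 10 µM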
CSC inhib – blocks cancer stem cells; cancer stem cell-like cells viability, luminescence; inhibition, % at 7.5 µM; 300,000 tested, 1.1% active;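 active means mean at 75% or more and at least half the replicates too; inconclusive means mean and replicates disagree; tested in HMLE shEcad cells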;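 further: 0% = median of negative and 100% = median of positive control wells; the first replicate is given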
eIF4H FP inh – inhibitors of RNA binding by human eIF4H | eIF4H fluorescence polarization binding assay | inhibition, % at 35 µM | 290,000 tested, 0.94% active | AID 2012;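 active means 50% or more with normal probe brightness, or confirmed in later tests; inconclusive means above 50% with abnormal brightness, or retests that disagree; inactive means below 50% or failed in later tests; about a fifth of its hits are not listed in these tables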;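 further: calls also rest on retests at 20 µM and on dose response follow-up; 0% = protein and probe with vehicle and 100% = probe without protein; strong numbers were not always called active; many hits fall short of the cut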
MT1-MMP act inh RFP – further read-out of MT1-MMP act inh, marked with its call; RFP signal change, %; measured here: RFP expression control read;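 0 = vehicle wells; hits needed this value within 50% of zero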
Starred values were filed as active, the others as inactive; i = inactive; ? = inconclusive; . = no result given; + = active, no number; & = joins results of further samples.

SMILES	UUG fidelity	MT1-MMP act inh	MT1-MMP act inh RFP	Env fusion inh	PABP polyA inh	Rce1 inhib	CSC inhib	eIF4H FP inh
CNC(=O)CN(Cc1ccccc1)S(=O)(=O)c1ccccc1	-0.4	2.8	2.2	-2.8	-3.2	i	-19.2	-7.6
Cc1ccc(NC2CC(=O)N(CCc3ccccc3)C2=O)cc1 (stereo unspecified)	-6.2	9.9	-1.9	.	15.6	i	-10.3	-5.0
CNC(=O)CC1C(=O)N(c2ccc(F)cc2)C(=S)N1NC(=O)c1ccc(Cl)cc1 (stereo unspecified)	-20.2	2.4	-2.3	-31.6	-5.2	i	-9.4	-1.3
Cc1nc2cc(C(=O)OCC(=O)Nc3ccc(C#N)cc3)ccc2n1-c1ccccc1	-14.5	1.3	1.6	-12.9	2.0	i	-46.7	8.0
CC(CCc1ccccc1)NC(=O)c1ccccc1C(=O)O (stereo unspecified)	-15.4	-0.5	5.4	7.6	5.7	i	-8.0	-8.3
O=C(NCCN1CCCC1)c1ccccc1Cl	-13.3	-1.6	3.6	-22.3	13.3	i	-2.1	-0.5
CC1CCCCN1C(=O)COc1ccc(S(=O)(=O)N2CCCC2)cc1[N+](=O)[O-] (stereo unspecified)	-2.6	-6.1	-1.2	6.5	.	.	6.1	.
O=C(Nc1ccccc1F)c1nc[nH]c1C(=O)NCc1ccccc1	0.1	0.1	-3.2	-11.4	.	.	.	.
COc1ccc(NC(=O)c2cc(-c3cc(C)cs3)[nH]n2)cc1OC	-19.3	-1.5	1.0	13.9	.	.	.	.
NC(c1ccccc1)c1csc(Nc2ccc(C(=O)NCCO)cc2)n1 (stereo unspecified)	-13.6	1.2	2.0	-18.8	.	.	.	.
COc1ccc(S(=O)(=O)Nc2c(NC3CCCCC3)c3ccccc3oc2=O)cc1Cl	-5.7	-5.0	-5.6	19.7	3.1	i	5.2	-4.7
COc1ccc(-n2nc(C(=O)NCC(=O)N3CCN(c4ccccn4)CC3)c3ccccc3c2=O)cc1Cl	.	5.0	0.6	-20.6	-2.8	i	-5.2	-8.0
Cn1nnc(NC(=S)NC(=O)c2ccccc2)n1	.	-1.0	0.2	-5.6	-8.4	i	-7.1	-0.1
COc1ccccc1C(=O)OCC(=O)Nc1ccc(Cl)cn1	.	-0.9	1.4	2.5	-0.9	i	-16.0	-0.8
Cc1ccc(S(=O)(=O)NC(C(=O)Oc2ccc3c(C(F)(F)F)cc(=O)oc3c2)c2ccccc2)cc1 (stereo unspecified)	1.1	0.0	4.0	-12.1	-10.8	i	-4.1	28.1
O=C1C(Cc2ccccc2)C(c2ccccc2)N1c1ccccc1 (stereo unspecified)	-5.7	-2.4	-4.6	.	4.8	i	64.9	6.2
COc1ccc(CCNC(=O)COC(=O)Cn2cnc3c2c(=O)n(C)c(=O)n3C)cc1	-1.9	1.0	3.6	-6.4	.	.	.	.
COc1ccc(NC(=O)c2ncn[nH]2)cc1	-11.0	-0.7	4.3	-54.4	-3.3	i	-3.0	-3.0
CCC(C)NC(=O)/C=C/c1cccs1 (stereo unspecified)	.	5.1	8.0	-1.9	2.3	i	7.3	3.5
CCOC(=O)N1CCN(C(=O)CNS(=O)(=O)c2c(C)cc(C)cc2C)CC1	-5.5	1.0	0.3	1.9	5.2	i	1.3	-5.4
CCOC(=O)CC(c1ccc([N+](=O)[O-])cc1)n1c(C)ccc1C (stereo unspecified)	-15.6	-2.9	0.7	-0.3	-11.2	i	-3.3	-1.7
O=C(O)c1ccc(Cn2cnc3scc(-c4ccccc4)c3c2=O)cc1	-7.2	0.4	-0.3	-1.5	0.3	i	-4.0	-4.7
CN(C)S(=O)(=O)c1cc(C(=O)NCc2ccccc2)c(Cl)cc1Cl	-20.7	3.6	-2.5	6.5	-5.5	i	-6.4	-5.2
COc1ccc(C(=O)NC2CCN(C(=S)Nc3ccccc3C)CC2)cc1	.	1.1	0.4	6.2	1.9	i	.	-3.4
COc1ccc(C2C(C(=O)Nc3cccc(C)n3)c3ccccc3C(=O)N2C)cc1OC (stereo unspecified)	7.2	3.7	3.7	-0.3	-7.4	.	-2.1	-7.6

Additional results follow.
SMILES	UUG fidelity	MT1-MMP act inh	MT1-MMP act inh RFP	Env fusion inh	PABP polyA inh	Rce1 inhib	CSC inhib	eIF4H FP inh
CSc1nc2sc3c(c2c(=O)[nH]1)CCC(C)C3 (stereo unspecified)	-9.5	3.3	-0.7	-46.6	4.0	i	-4.3	-5.7
Cn1c(N)c(C(=O)CNC2CCCCC2)c(=O)n(C)c1=O	-14.5	-0.6	-1.4	-37.0	.	i	-1.7	.
O=C(Nc1ccccc1NC(=O)c1csnn1)c1csnn1	.	0.7	1.4	7.6	11.9	i	-7.5	-3.1
COc1ccc(S(=O)(=O)N(C(=O)C(C)C)c2ccc3oc(=O)sc3c2)cc1	-9.0	6.8	1.2	.	3.7	i	4.7	-7.1
Cc1ccccc1NC(=O)COC(=O)c1c(-c2ccccc2)noc1C	-20.8	-1.4	-5.7	.	.	.	-1.1	.
Cc1nc(-c2coc3cc(O)c(C)cc3c2=O)cs1	.	-0.2	0.5	.	5.6	i	.	-2.9
CSc1ccc(CN(C)CC(=O)NC(=O)NC(C)(C)C)cc1	.	1.3	5.0	?	7.2	i	-1.7	-1.2
Cc1ccc(S(=O)(=O)NCc2ccc(C(=O)NCCCN3CCN(C)CC3)cc2)cc1	-12.4	-11.1	-15.8	-109.6	-2.6	i	-14.7	-11.1
Nc1ccc(C(=O)OCC(=O)Nc2ccc([N+](=O)[O-])cc2C(F)(F)F)cc1	.	0.9	0.9	-36.8	-5.9	i	1.5	-10.3
COCCCNC1=C(Cl)C(=O)c2ccccc2C1=O	0.8	0.4	-0.1	10.3	2.3	i	.	-4.2
COc1cc(NC(=O)CSc2nc3ncnc(N)c3[nH]2)c(C(=O)O)cc1OC	-23.5	1.2	-0.6	-2.0	3.5	i	-13.7	-3.8
COc1cc2c(cc1OC)CN(C(=O)/C=C/c1cc(OC)c(OC)c(OC)c1)CC2	0.1	4.1	2.0	16.1	6.3	i	12.3	5.6
Cc1ccc(C(=O)NNC(=O)C2CCN(S(=O)(=O)c3ccc(C)cc3)CC2)cc1	9.8	-3.1	3.4	-6.2	-5.7	i	-7.2	-4.8
COc1ccc(-n2ncc3c(=O)n(CC(=O)NC(C)C)cnc32)cc1	2.2	-0.3	-3.6	-2.5	1.3	i	-29.1	-2.2
N/C(=N\OC(=O)CC1CCCCC1)c1cccc(Br)c1	-27.3	-0.1	5.3	6.9	13.9	i	16.4	-8.2
COCC1CCN(Cc2cn[nH]c2-c2cc(OC)c(OC)c(OC)c2)CC1	-6.4	3.9	0.7	1.8	-6.3	i	-4.7	-8.1
COc1ccccc1C(=O)NNC(=O)c1ccc2ccccc2c1	-2.3	0.4	1.5	6.0	-3.7	i	1.1	-13.3
O=C(O)C1=CCCNC1	-4.7	0.7	1.9	26.2	.	i	-11.8	.
Cc1nc(N2CCOCC2)[nH]c(=O)c1[N+](=O)[O-]	.	6.7	6.7	-3.4	4.6	i	-12.9	-14.3
O=S(=O)(Nc1ccn(-c2ccccc2)n1)c1ccc(Br)cc1	-8.7	-3.2	0.8	.	8.0	i	5.8	8.5
CCCCN(C)S(=O)(=O)c1cc2c3c(c1)CCC(=O)N3CCC2	-2.4	-1.4	-5.6	-4.1	-7.8	i	-2.0	-7.0
Nc1nonc1-n1nnc(C(=O)N/N=C/c2ccccc2)c1CSc1ccccc1	-26.1	-5.1	-4.5	2.5	5.1	.	-7.4	5.1
Cc1noc(C)c1S(=O)(=O)Nc1ccc2c(c1)C(=O)N([C@H](C)CO)C[C@H](C)[C@@H](CN(C)Cc1ccc(C(=O)O)cc1)O2	-0.1&8.0	-3.3	-0.2	7.2	.	.	.	.
COCC(=O)N1CCC(Oc2ccc(C(=O)NCc3cnc(C)cn3)cc2)CC1	.	1.4	1.3	3.3	6.5	i	.	-7.5
Nc1nncn1C(=O)CCCN1C(=O)c2ccccc2C1=O	-19.9	11.1	1.3	9.3	6.8	i	-4.1	-5.5

Next section:
SMILES	UUG fidelity	MT1-MMP act inh	MT1-MMP act inh RFP	Env fusion inh	PABP polyA inh	Rce1 inhib	CSC inhib	eIF4H FP inh
O=C(Nc1cc(-c2ccccc2)[nH]n1)c1ccccc1	-25.2	-0.9	-0.2	-92.7	1.5	i	5.5	-3.7
C=CCOC(=O)C1=C[C@@H](c2ccc(C(F)(F)F)cc2)C[C@@H](OCc2ccc(CO)cc2)O1	-10.0	-4.5	0.2	18.4	.	i	-9.8	.
COc1cc(/C=c2\sc3n(c2=O)CCCN=3)ccc1O	0.7	-10.2	-0.9	-257.5	-18.2	i	7.5	-4.4
CC1CC(C)CN(C(=O)Cc2c(C(=O)O)[nH]c3ccc(Cl)cc23)C1 (stereo unspecified)	-11.9	14.2	8.2	7.8	11.9	i	2.4	-1.3
Cn1cccc1Cc1nnc(SCC(=O)NCC2CCCO2)n1C (stereo unspecified)	.	-2.4	-0.9	-246.0	?	i	-5.9	4.7
CCOC(=O)C1CCCN(C(=O)CCCn2nnnc2CN2CCOCC2)C1 (stereo unspecified)	4.1	-0.2	-0.8	6.9	6.7	i	.	4.7
Cc1[nH]nc2c1C(c1ccc(F)cc1)C1=C(CC(C)(C)CC1=O)N2 (stereo unspecified)	-14.5	-1.5	5.4	-65.9	7.4	+	-13.8	0.2
CCc1ccc(NC(=S)NC2CC3CCCC(C2)N3Cc2cccs2)cc1 (stereo unspecified)	-7.5	4.3	1.9	.	-5.6	i	.	-0.9
Cc1ccc(C2(C)NC(=O)N(CC(=O)Nc3ccccc3C(=O)NC3CCCC3)C2=O)cc1 (stereo unspecified)	-0.5	0.7	2.7	30.3	.	i	-5.5	.
Fc1cnc(N2CCOCC2)nc1N1CCc2ccccc21	-18.1	-5.1	-4.8	.	0.6	i	8.2	-1.4
COc1cccc(NC(=S)N/N=C2\CC3CCC2(C)C3(C)C)c1 (stereo unspecified)	-15.6	-2.8	-6.4	-14.3	-5.7	i	-9.2	5.5
COc1cc(NC(=O)NCc2ccncc2)cc(OC)c1OC	-16.9	-4.2	-1.0	.	-5.2	i	.	-6.0
N#CCCN(CCN1CCCC1)S(=O)(=O)c1ccc(-c2ccc([N+](=O)[O-])cc2)cc1	.	-0.7	-0.5	21.3	5.9	i	7.5	-4.2
Cc1ccc(NC(=O)COC(=O)C2CC2)cc1S(=O)(=O)N1CCOCC1	-2.5	-2.6	1.2	.	.	.	-7.6	.
N#Cc1ccccc1NC(=O)COC(=O)c1ccc2c(c1)OCO2	-14.3	-3.2	3.8	.	.	.	-12.1	.
Cc1nc(CN(C)Cc2nc(Cc3ccccc3Cl)no2)cs1	-2.5	-2.3	-2.1	1.0	6.4	i	3.6	-11.3
O=C(/C=C/c1ccco1)Nc1ccc(C(=O)N2CCOCC2)cc1	0.1	-6.3	1.2	6.8	-2.7	i	-4.1	28.7
Cc1ccc(N2CCN(S(=O)(=O)c3ccc4oc(=O)ccc4c3)CC2)c(C)c1	0.4	2.8	-6.0	20.8	-10.8	i	.	-0.4
CC(=O)c1cccc(NC(=O)COC(=O)c2ccc(S(C)(=O)=O)c([N+](=O)[O-])c2)c1	.	-4.7	-0.7	10.6	3.8	i	57.5	11.7

Screening results deposited in PubChem BioAssay by several laboratories.

Hits appear at their usual frequency; any-hit rate near 2.9%.
